# Screening data as filed in PubChem BioAssay.
# Vaccinia Venus = inhibitors of vaccinia virus (Venus reporter); Vaccinia virus Venus reporter expression, fluorescence; Potency, µM (doses to about 36.5 µM), for the others: at the top dose activity change, negative = inhibition, usual class: inhibitors; 330,000 tested, 0.46% active; AID 720580; active means well fitted inhibition curve with a large enough effect; inconclusive means small, poorly fitted or top-dose-only effect; inactive means no such curve, though single readings can be large or run the other way; tested in A549 cells; further: nearly all actives have a fitted effect of over 30% in size; inactives centre near -10
# VACV mCherry inh = vaccinia inhibition (mCherry reporter); Potency, µM (top dose mostly 36.5 µM), without a hit: at the top dose activity change, negative = inhibition, actives largely listed as inhibitors; 310,000 tested, 0.63% active; Vaccinia virus mCherry reporter infection, fluorescence; about a quarter of the inactives have no number; AID 720579; active = well fitted inhibition curve with a large enough effect; inconclusive = small, poorly fitted or top-dose-only effect; inactive = no such curve, though single readings can be large or run the other way; tested in A549 cells; further: nearly all actives have a fitted effect of over 35% in size; inactives centre near -10
# Active calls of the source: *; i = inactive; ? = inconclusive; · = no result given; & = joins results of further samples; [ ] = another dose, or the depositor's remark. On the % scale 0 is the no-effect control and ±100 the full control effect; potency means the concentration at half of the fitted maximal effect.
cpd | molecule | Vaccinia Venus | VACV mCherry inh
1 | O=C(NC1CCCC1)C1CC(=O)N(CCc2ccccc2)C1 (stereo not given) | -6% | -2%
2 | CCCN(C(=O)c1sc2nc3n(c(=O)c2c1C)CCCC3)c1ccccc1C | 14% | ?
3 | Cc1c(C)c2ccc(OCC(=O)Nc3ccc(N4CCC(C)CC4)cc3)cc2oc1=O | -5% | -14%
4 | Cc1cc(NC(=O)CSc2nnc(-c3c[nH]c4ccccc34)n2C)no1 | 10% | 13%
5 | CC(c1ccccn1)N(CCN(C)C)C(=S)Nc1ccccc1F (stereo not given) | -6% | -15%
6 | C/C(=N\Nc1nc2ccccc2[nH]1)c1cc2ccccc2o1 | -24% | -29%
7 | O=C(Nc1ccc(Cl)cc1)N(C1=NCCC1)c1ccc(OC(F)F)cc1 | -18% | i
8 | COc1ccccc1C1CN(Cc2cccc(O)c2)Cc2ccccc2O1 (stereo not given) | -24% | -26%
9 | CCOc1cc(N2CCOCC2)c(OCC)cc1NC(=O)c1cccc(N(C)C)c1 | -4% | -14%
10 | O=C(CN(Cc1ccccc1)C(=O)CCC(=O)Nc1nccs1)NCc1ccc(F)cc1 | -13% | 5%
11 | Cc1ccccc1OCc1nc2ccccc2c(=O)n1/N=C/c1cn[nH]c1-c1ccccc1 | ? | ?
12 | CC(=O)c1cnn(-c2cc(Oc3cccc(C)c3)ncn2)c1C | -22% | ·
13 | C=CC[C@H](CC(=O)NCCO)C(=O)N[C@@H](COC(=O)[C@@H](CC=C)Cc1ccc(F)cc1)Cc1ccccc1 | -27% | -6%
14 | CC(C)c1[nH]nc2c1C(c1ccc(OC(=O)c3ccco3)cc1)C(C#N)=C(N)O2 (stereo not given) | -10% | i
15 | O=C(Nc1ccc2c(c1)oc1ccccc12)c1cccnc1 | -20% | ·
16 | CC(C)COC(=O)N1CCCCC1c1cc(C(=O)N2CCOCC2)no1 (stereo not given) | 0% | 41%[activator]
17 | Cc1cccc(NS(=O)(=O)c2ccc(NC(=O)CN(c3cc([N+](=O)[O-])ccc3C)S(C)(=O)=O)cc2)c1 | ? | ?
18 | CCOC(=O)/C(=N\Nc1ccccc1)c1csc(Nc2ccc(C)cc2)n1 | ? | -11%
19 | Cc1cccc(N2CCN(C(=O)CCNS(=O)(=O)c3ccc4c(c3)CCN4C(=O)C3CC3)CC2C)c1 (stereo not given) | -12% | -23%
20 | COc1ccc(NS(=O)(=O)c2cccc(C(=O)NNC(=O)c3ccccc3O)c2)cc1 | -10% | ?
21 | CCn1c(CNC(=O)c2ccc(Cl)cc2)nnc1SCC(=O)NC1=NCCS1 | 3% | 7%
22 | O=c1[nH]c(=O)n(C2CCCCCC2)c(O)c1C=NCCCN1CCOCC1 | -8% | ·
23 | O=C(Nc1ccc2nc(SCCOc3ccccc3)sc2c1)c1cccs1 | -4% | -10%
24 | Cc1cccc(OCC(=O)NCCCNC(=O)c2cccnc2)c1 | 6% | -15%
25 | COc1ccc(-n2c(COc3ccc4c(c3)OCO4)nnc2SCC(=O)O)cc1 | -2% | -17%
26 | CC1=C(C(N)=O)C(c2ccc(C)cc2)n2nc(SCc3ccccc3)nc2N1 (stereo not given) | -4% | -1%
27 | CC(C)SC1=NC(C)(C)C=C(/C=C/c2c(Cl)cccc2Cl)N1 | -25% | ·
28 | CSc1ccc(/C=N/NC(=O)CNc2cccc3ccccc23)cc1 | -14% | -15%
29 | COc1cc(Cl)ccc1OCc1cc(C(=O)N2CCN(C)C(=O)[C@@H]2C)no1 | -14% | i
30 | O=c1c2ccccc2oc2cc(-c3ccc(CN4CCOCC4)cc3)ccc12 | ? | ?
31 | O=C(CSc1ncccc1C(=O)Oc1ccccc1Cl)Nc1ccc(C(F)(F)F)cc1Cl | ? | ?
32 | CCOC1=C2[C@@H](CN(S(=O)(=O)c3ccc(C)cc3)[C@H]2c2cccc3ccccc23)[C@H]2C(=O)N(C3CCCCC3)C(=O)[C@H]2C1 | -8% | 8%
33 | Cc1sc2nc(COC(=O)c3ccc(O)cc3)[nH]c(=O)c2c1C | -12% | -10%
34 | COC(=O)c1ccccc1S(=O)(=O)N(CCCN1CCOCC1)Cc1cccs1 | -17% | -24%
35 | C=CCOc1ccc(/C=C/C(=O)OCC(=O)NCCc2ccccc2)cc1 | -12% | -14%
36 | COc1cccc2c(=S)c(CCC(C)=O)c(C)[nH]c12 | -9% | -16%

# 2 entries from above in another layout:
[28] CSc1ccc(/C=N/NC(=O)CNc2cccc3ccccc23)cc1
  Vaccinia Venus = -14%; VACV mCherry inh = -15%

[30] O=c1c2ccccc2oc2cc(-c3ccc(CN4CCOCC4)cc3)ccc12
  Vaccinia Venus = ?; VACV mCherry inh = ?

# (listing goes on)
cpd | molecule | Vaccinia Venus | VACV mCherry inh
37 | Cc1cc(C)cc(OCCCC(=O)O)c1 | -18% | ·
38 | CCN1CCN(c2cc(=O)n(C3CCCCC3)c(=O)[nH]2)CC1 | 4% | -12%
39 | C[C@H](CO)N1C[C@H](C)[C@@H](CN(C)S(C)(=O)=O)Oc2ccc(NC(=O)CCN3CCOCC3)cc2C1=O | -10% | i
40 | O=C(O)C(Cc1ccccc1)N1C(=O)c2c(Cl)c(Cl)c(Cl)c(Cl)c2C1=O (stereo not given) | -5% | -10%
41 | CCOC(=O)c1cc(CC)sc1N1C(=O)CC(Sc2ncccc2C(=O)O)C1=O (stereo not given) | -10% | -7%
42 | COC(=O)c1ccccc1S(=O)(=O)N1CCC(C(=O)NCC2CCCO2)CC1 (stereo not given) | -3% | -11%
43 | CCOCCn1ccc2c(OCC(=O)Nc3ccc(OC)cc3OC)cccc2c1=O | -10% | i
44 | COc1ccc(NC(=O)CN2C(=O)NC3(CCCCCCC3)C2=O)cc1 | -12% | -11%
45 | O=C(c1c[nH]c2ccc(F)cc2c1=O)N1CCCCCC1 | 0% | -12%
46 | CSc1cccc(NC(=S)N2CCC(c3ccccc3)C2)c1 (stereo not given) | -14% | -1%
47 | O=C(Nc1cccc(F)c1)N1CC=C(c2ccc(Cl)cc2)CC1 | ? | i
48 | c1cncc(CNc2ncnc3ccc(-c4cccnc4)cc23)c1 | -16% | -19%
49 | COc1cc(OC)c(/C=C/c2nccc3ccccc23)c(OC)c1 | -21% | -26%
50 | CC(=O)c1ccc(S(=O)(=O)NCCC(=O)OCC(=O)N2CCCC2=O)cc1 | -10% | i
51 | Cc1cc(C(=O)Nc2ccc(Br)cc2F)n(-c2ccccc2)n1 | -20% | -13%
52 | CC(C)(C(=O)N1CCC1(C)C(=O)NS(=O)(=O)c1ccc(Br)cc1)c1ccccc1 (stereo not given) | 5% | 35%[activator]
53 | OCCC1CN(Cc2ccccc2O)CCN1CCc1ccccc1 (stereo not given) | -10% | i
54 | CCOc1ccc(CCNC(=O)CSc2n[nH]c(-c3ccccc3)n2)cc1OCC | -9% | -3%
55 | CN(C)CCC(O)(c1ccccc1)c1ccccc1 | -11% | i
56 | CCOC(=O)c1ccc(CN(Cc2ccccc2C)S(=O)(=O)c2ccc(F)c(C(=O)Nc3cccc(OC)c3)c2)cc1 | -11% | -12%
57 | Cc1ccc(C(c2nnnn2CC2CCCO2)N2CCN(c3cccc(C)c3C)CC2)cc1 (stereo not given) | ? | ·
58 | O=C(NC(=S)Nc1ccccc1N1CCCC1)c1ccc([N+](=O)[O-])cc1 | -28% | -21%
59 | O=C(Oc1cccc2c(O)cccc12)c1ccccc1Cl | -10% | -22%
60 | Cn1c2ccc(F)cc2c2nnc(SCCN3CCCCC3)nc21 | -24%&-12% | -10%

# Next entries.
no.	Structure	Vaccinia Venus	VACV mCherry inh
61	COc1ccccc1NC(=O)c1nc(S(=O)(=O)Cc2ccccc2)ncc1Cl	?	-9%
62	CCC(CC)c1nnc(NC(=O)[C@@H](NC(=O)c2cccc(C)c2)C(C)C)s1	-10%	-6%
63	CN(C)CCCNc1nc2cc(-c3ccc(C(=O)N4CCN(C)CC4)cc3)sc2c(=O)n1C	30%	24%
64	O=C(OCc1ccccc1F)c1ccc2c(c1)OCCO2	-3%	i
65	COc1cccc2cc(-c3cn4ccc(C)cc4n3)c(=O)oc12	-2%	-8%
66	Cc1cc(C)c(C(=O)c2ccc(C(=O)N3CCCCC3)cc2)c(C)c1	-15%	-12%
67	CCN1C[C@@H]2[C@@H]3C(=O)N(C)C(=O)[C@@H]3[C@](CC)(C1=O)N2C(=O)c1ccccc1	-12%	i
68	COc1cc(OC)cc(C(=O)Nc2ccccc2-c2nc3ccccc3s2)c1	-18%	-20%
69	COc1cc(OC)cc(C(=O)Nc2ccc3nc(Nc4cccc(C(F)(F)F)c4)cc(C)c3c2)c1	?	?
70	O=C(CCc1ccccc1)NC(NC(=S)Nc1ccc(Cl)cc1)C(Cl)(Cl)Cl (stereo not given)	?	?
71	COc1ccc(NC(=O)NC23CC4(C)CC(C)(CC(C)(C4)C2)C3)cc1	-13%	-11%
72	O=C1C=CC(=O)C=C1	-7%&9%	17%
73	Cc1cc(OC(=O)c2ccco2)c(Sc2ccccc2[N+](=O)[O-])c(=O)o1	-4%	i
74	O=S(=O)(Nc1cccc(C(F)(F)F)c1)c1cccnc1	?	·
75	NS(=O)(=O)c1cccc(NS(=O)(=O)c2ccc(/C=C/C(=O)OCC(=O)c3ccccc3)cc2)c1	-4%	-17%
76	Cc1ccc(C(=O)N/C(=C/c2ccco2)C(=O)O)cc1	-7%	-4%
77	COc1ccccc1NC(=O)N1CCN(c2ccc(F)cc2)CC1	-3%	-13%
78	CCO[C@@H]1OC(C(=O)NC2CC2)=C[C@H](C)[C@H]1CCCO	0%	i
79	Cc1ccc(NC(=O)OC(C)N2CCCCC2)cc1NC(=O)OC(C)N1CCCCC1 (stereo not given)	-13%	-2%
80	CN1C(=O)C(C)(C)c2cc(S(=O)(=O)NCc3ccc(Cl)cc3)ccc21	-2%	-9%

# Compound profiles, as listed above. Values in the order: Vaccinia Venus | VACV mCherry inh
# Record of O=C(OCc1ccccc1F)c1ccc2c(c1)OCCO2 : -3% | i
# Record of COc1ccccc1NC(=O)N1CCN(c2ccc(F)cc2)CC1 : -3% | -13%
# Record of CN1C(=O)C(C)(C)c2cc(S(=O)(=O)NCc3ccc(Cl)cc3)ccc21 : -2% | -9%
# Record of CCO[C@@H]1OC(C(=O)NC2CC2)=C[C@H](C)[C@H]1CCCO : 0% | i
# Record of O=C1C=CC(=O)C=C1 : -7%&9% | 17%

# The list continues:
no.	Structure	Vaccinia Venus	VACV mCherry inh
81	Cc1csc(NC(=O)C2CCCN2C(=O)OCC(C)C)n1 (stereo not given)	-5%	·
82	CCc1ccc2oc(C(=O)Nc3c(C)n(C)n(-c4ccccc4)c3=O)cc(=O)c2c1	-23%	i
83	Cn1c(Cn2cnc3ccccc32)nnc1SCC(=O)CC(=O)Nc1ccccc1	-10%	-6%
84	Cc1cccc(N2CCN(C(=O)C3CCN(S(=O)(=O)c4cccnc4)CC3)CC2)c1C	-15%	-16%
85	Nc1c(C(=O)Nc2ccccc2)sc2nc3c(c(-c4ccco4)c12)CCC3	-24%	?
86	COc1ccc(NC(C)=O)cc1NC(=O)CSc1nc2ncccc2[nH]1	-8%	i
87	CCOC(=O)C1(CCOC)CCN(C(=O)c2ccccc2-c2cccc(C)c2)CC1	-17%	i
88	Cc1cc(Br)ccc1NS(=O)(=O)c1c(C)[nH]c(=O)[nH]c1=O	-8%	-17%
89	O=C(c1ccccc1)N1CCN(c2ccccc2F)CC1	-9%	-5%
90	COc1ccc(-c2ccc(=O)n(CC(=O)Nc3ccc(C(=O)NC4CC4)cc3)n2)cc1OC	-14%	·
91	O=C(CNC(=O)c1cccs1)c1ccc([N+](=O)[O-])cc1	-13%	-18%
92	O=S(=O)(Cc1cc(Cl)nc(-c2ccncc2)n1)c1ccccc1	-4%	-3%
93	O=C(Cc1ccc(S(=O)(=O)N2CCOCC2)s1)Nc1ccc(S(=O)(=O)N2CCCCC2)cc1	-10%	i
94	CN1CCN(NC(=O)/C=C/c2cccc([N+](=O)[O-])c2)CC1	-6%	?
95	CCOC(=O)c1cnc2oc3ccccc3n2c1=O	-9%	-14%
96	Clc1ccc(Nc2nc(NCCN3CCOCC3)nc(N3CCOCC3)n2)cc1	?	·
97	Cc1ccsc1C(C(=O)NCc1ccccc1)N(C(=O)c1csnn1)c1ccccc1 (stereo not given)	-3%	-19%
98	CCCS(=O)(=O)NC(=O)C1(C)CCCN(C(=O)c2ccccc2Br)C1 (stereo not given)	7%	5%
99	COC(=O)c1ccc(C(=O)OC)c(NC(=O)c2cc3nc(-c4ccc(C)cc4)cc(C(F)(F)F)n3n2)c1	8%	-3%
100	COc1ccc(-c2noc(-c3ccc(NC4CCCC4)c([N+](=O)[O-])c3)n2)cc1	-11%	-5%
101	CCOc1cc(N2CCOCC2)c(OCC)cc1NC(=O)CN1CCN(Cc2ccc3c(c2)OCO3)CC1	-1%	i
102	COc1cccc(OCc2nn[nH]n2)c1	-10%	-7%
103	CCc1nnc(NC(=O)CSc2nccn2Cc2ccc(F)cc2)s1	-6%	i
104	CC1CCN(c2nc3c(c(=O)[nH]c(=O)n3C)n2Cc2ccccc2Cl)CC1	-19%	i
105	Cc1cn([C@H]2C[C@H](O)[C@@H](CNC(=O)[C@H](N)Cc3cn(COCc4ccccc4)cn3)O2)c(=O)[nH]c1=O	-7%	i
106	COc1cc(CN2C[C@@H](CO)O[C@@H](n3cnc4c(N5CCN(c6ccccc6)CC5)ncnc43)C2)cc(OC)c1OC	-16%	-30%
107	Cc1ccc(S(=O)(=O)NCC(=O)OCc2csc(-c3ccccc3)n2)cc1	-18%	i
108	Cc1cc(=O)[nH]c(=S)[nH]1	-11%&-11%	-17%
109	NC(=O)C1CCN(CC(=O)Nc2cc(Cl)ccc2Oc2ccccc2)CC1	-8%	-9%
110	Cc1cc(C)nc(-n2ncc3c2CC(C)CC3=O)n1 (stereo not given)	-1%	i
